Polio RdRp inh: poliovirus RdRp elongation inhibitors, primary screen, biochemical, fluorescence polarization, total intensity | Genome polyprotein (Poliovirus type 1 (strain Mahoney)), P03300 | poliovirus polymerase elongation; stronger effect = lower value | % elongation, % (compound at 16.7 µg/mL) | hit rate 0.66% among 150,000 | AID 588519, 2011; in the data active = % elongation below about 90%; note: some results filed as inactive read as strong as hits
Target sequence (P03300 1749-2209 limits assumed): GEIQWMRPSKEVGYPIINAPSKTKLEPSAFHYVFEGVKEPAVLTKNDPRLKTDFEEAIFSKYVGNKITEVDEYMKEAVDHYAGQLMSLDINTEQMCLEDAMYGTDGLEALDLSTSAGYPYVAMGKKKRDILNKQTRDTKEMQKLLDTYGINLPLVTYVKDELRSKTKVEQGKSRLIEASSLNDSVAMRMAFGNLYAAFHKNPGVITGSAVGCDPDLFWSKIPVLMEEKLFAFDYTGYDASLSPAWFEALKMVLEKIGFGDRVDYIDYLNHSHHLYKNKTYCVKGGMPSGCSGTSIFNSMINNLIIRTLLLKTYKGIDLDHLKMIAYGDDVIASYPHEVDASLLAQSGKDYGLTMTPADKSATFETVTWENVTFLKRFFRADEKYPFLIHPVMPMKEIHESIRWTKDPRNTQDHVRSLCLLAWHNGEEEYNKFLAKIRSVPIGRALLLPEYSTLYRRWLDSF
Polio RdRp inh intensity: recorded beside Polio RdRp inh, whose call it bears; % elongation; measured here: total intensity read-out; formula for this scale not given here;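 total fluorescence in place of polarization; lower means less elongation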
Starred values were filed as active, the others as inactive. Some of the compounds tested; rates above refer to the full screens.

SMILES	Polio RdRp inh	Polio RdRp inh intensity
CN(Cc1ccccc1)S(=O)(=O)c1ccc(F)c(C(=O)Nc2cccc(Cl)c2Cl)c1	109	90
Cc1ccc(CCNC(=O)c2c(C)oc3ncnc(N4CCOCC4)c23)cc1	123	122
Cc1nc(-c2ccc(F)cc2)sc1CCNC(=O)c1ccccc1C(F)(F)F	106	99
Cc1cc(C)n2c(Nc3cccc(C(F)(F)F)c3)c(-c3ccsc3)nc2n1	110	109
Cc1cc(NC(=O)c2ccc(Br)o2)cc(-c2nc3ccccc3o2)c1O	108	106
O=C(c1ccc2c(c1)OCO2)c1cn(Cc2ccc(F)cc2)c2ccccc2c1=O	104	105
CCOc1ccc(S(=O)(=O)N2CCN(c3c(C)cccc3C)CC2)c2ccccc12	105	114
COc1ccc(CCNC(=O)C2=C(C)C(=O)OC23CCCCC3)c(OC)c1	106	109
O=C(NCCc1csc(-c2cccnc2)n1)c1cccc(C(F)(F)F)c1	97	102
O=C(NC1CCN(Cc2ccccc2)CC1)c1ccc(Cn2c(=O)c3ccccc3n(Cc3ccccc3)c2=O)cc1	73*	44*
CCCN1C(=O)c2ccccc2CC1(C)C(=O)NC1CCCCC1 (centres undefined)	117	120
CC1=C(C(N)=O)C(c2ccccc2Br)n2ncnc2N1 (centres undefined)	109	107
CCOc1ccc(-c2nn(-c3ccccc3)cc2C2NC(=O)NC(C)=C2C(=O)OC(C)C)cc1C (centres undefined)	106	110
CC(C)(C)OC(=O)N1CCC(c2c(C(=O)NCc3ccc(F)cc3)cnn2-c2ccc(F)cc2)CC1	107	113
CC(C)c1ccc(C2=CC(c3cccc(Cl)c3)n3c(nc4ccccc43)N2)cc1 (centres undefined)	104	104
Cc1ccc(/C=C(\C#N)C(=O)Nc2cc(C)ccc2C)cc1	105	107
Cc1ccc(CNC(=O)c2ccc3c(c2)nc2n3CCOC2)cc1	116	114
Cc1ccc2occ(-c3cc(-c4ccc(Cl)cc4)nc4c3COc3ccccc3-4)c(=O)c2c1	109	107
O=C(NCCc1ccccc1)C1COc2ccccc2C1 (centres undefined)	100	104
COc1ccc(NC(=O)C(=O)NCCc2csc3nc(-c4ccccc4C)nn23)cc1	102	97
Cc1c(C(=O)NCCN(C)C)oc2c1-c1nn(Cc3cccc(Cl)c3)cc1CC2	105	102
COc1cc(OC)c(NC(=O)NCCn2nnc3cc(S(=O)(=O)N(C)C)ccc32)cc1Cl	108	113
COc1ccc(Nc2nc3c(S(=O)(=O)c4ccccc4)nnn3c3ccsc23)cc1OC	98	96
Cc1cccc(OCC(=O)Nc2ccc(OCc3cc(=O)n4cc(C)ccc4n3)cc2)c1	112	109
Cc1nc2ccccc2n1CCc1nc2c3ccccc3nc(SCc3ccc(C#N)cc3)n2n1	107	102
COc1ccc(NC(=O)c2ccc3c(SCC(=O)O)c4c(nc3c2)CCCC4)c(OC)c1	99	100
COc1ccc(OC)c(NC(=O)COCc2cc(-c3ccc(F)cc3)on2)c1	106	107
COCCCNC(=O)c1ccc(Cn2c(=O)c3ccccc3n(Cc3ccc(C)cc3)c2=O)cc1	110	107
O=C(Nc1cc(Cl)cc(Cl)c1)c1cc(S(=O)(=O)N2CCC3(CC2)OCCO3)ccc1F	110	111
O=C(c1ccccc1)c1ccc2nc(N3CCN(c4ccccc4)CC3)c3nncn3c2c1	109	111
CCS(=O)(=O)N1CCc2cc(C(=O)NCc3ccccc3Cl)ccc21	109	110
COc1cc(-c2ccno2)ccc1S(=O)(=O)N1CCN(c2ccccc2)CC1	109	106
Cc1ccc2nc(-c3ccccn3)c(Nc3ccccc3C)n2c1	107	113
COc1ccc(-c2nc3sc(CCNS(=O)(=O)c4ccc(F)c(C)c4)c(C)n3n2)cc1	106	112
COc1ccc(OC(=O)c2nc(SCc3ccccc3F)ncc2Cl)cc1	108	111
Cc1ccc(C)c(NC(=O)CN2C(=O)CCc3cc(S(=O)(=O)N4CCCCC4)ccc32)c1	108	112
Cc1ccc(CCNC(=O)c2ccc3c(=O)n(-c4ccc(C)cc4)c(=O)[nH]c3c2)cc1	109	111
CCc1cccc(C)c1NC(=O)Cn1ncc2c3ccccc3n(Cc3ccccc3)c2c1=O	112	112
CC(=O)c1cc(-c2ccccc2)n(CC(=O)Nc2ccc(C)c(C)c2)c1C	101	91
Cc1ccccc1OCC(=O)NCC(c1ccc(Cl)cc1)N1CCCCC1 (centres undefined)	107	105
O=C(Nc1nnc(N2CCCCCC2)s1)Nc1ccccc1C(F)(F)F	110	112
Cc1nc(CC(=O)Nc2ccc(N(C)C)cc2)cs1	106	107
CC(C)c1ccc(NC(=O)CSC2=Nc3ccccc3C3=NC(CC(=O)NCCc4ccccc4)C(=O)N23)cc1 (centres undefined)	107	111
COc1ccc(-c2cn3nc(N4CCC(C(=O)Nc5cccc(Cl)c5)CC4)sc3n2)cc1	103	106
COc1cn(CC(=O)Nc2cccc(C)c2)c(CN2CCCCC2)cc1=O	108	101
COc1cccc(OCC(=O)NC2CC(=O)N(c3ccc4c(c3)OCCO4)C2)c1 (centres undefined)	109	104
COc1ccc(Cl)cc1NC(=O)CCC(=O)N1CCOc2ccccc21	114	115
CCC(=O)N1CCc2cc(Br)cc(S(=O)(=O)CCC(=O)NCc3ccccc3OC)c21	101	103
COc1ccc(NC(=O)C2CCN(S(=O)(=O)c3c(C)noc3/C=C/c3cccs3)CC2)cc1	108	112
CCOC(=O)CN1C(C(=O)c2ccccc2)=C(OC(=O)c2ccccc2)c2ccccc2S1(=O)=O	108	111
CCc1ccc(CNC(=O)C2COc3ccc(OC)cc3C2)cc1 (centres undefined)	104	107
COc1ccccc1CNC(=O)CCc1c(C)nn(-c2ccc(N3CCOCC3)nn2)c1C	113	113
COc1ccccc1N1CCN(c2csc3ccc(Cl)cc3c2=O)CC1	100	102
Cc1ccc(N2CCN(C(=O)c3c(C)oc4nc(C)nc(N5CCCC5)c34)CC2)c(C)c1	109	116
CCCC(O)c1nc2ccccc2n1CCCOc1ccc(Cl)cc1 (centres undefined)	111	111
CCOc1ccc(OCC)c(NC(=O)Cn2ncc3c4ccccc4n(Cc4ccccc4)c3c2=O)c1	106	109
N#Cc1ccc(NC(=O)COCc2cc(-c3ccc4c(c3)OCO4)on2)cc1	107	113
Cn1c(=O)c2nc(SCC(=O)Nc3cc(Cl)ccc3Cl)n(C)c2n(C)c1=O	103	103
COC(=O)c1ccccc1NC(=O)CCc1c(C)nc2c(c(C)nn2-c2ccccc2)c1C	111	107
Cc1nc(N2CCOCC2)c2c(C(=O)N(C)Cc3ccccc3)c(C)oc2n1	111	104
(further entries)
SMILES	Polio RdRp inh	Polio RdRp inh intensity
Cn1c(=O)c2c(nc(SCC(=O)Nc3ccc(F)cc3)n2Cc2ccccc2)n(C)c1=O	109	110
CN(c1ncnc2onc(-c3cccc(Cl)c3)c12)C1CCCCC1	107	108
CCOC(=O)Cn1c(C2CC(=O)N(c3ccc(C)cc3)C2)nc2ccccc21 (centres undefined)	110	116
Cc1cccc(N2CCN(S(=O)(=O)c3ccc4c(c3)CCCN4C(=O)C3CCC3)CC2C)c1 (centres undefined)	110	108
CC1CCCN(S(=O)(=O)c2cc(C(=O)NCc3ccccc3Cl)n(C)c2)C1 (centres undefined)	107	112
CCn1c(C(=O)NCCc2ccc(S(N)(=O)=O)cc2)cc2sc(Cl)cc21	101	109
CN(Cc1ccccc1)S(=O)(=O)c1ccc(F)c(C(=O)Nc2cc(Cl)cc(Cl)c2)c1	110	114
COc1cc(C2CC(=O)Nc3c2c(=O)n(C)c2ncnn32)cc(OC)c1OC (centres undefined)	105	104
CCc1ccc(NC(=O)c2sc3nc(C)c(C(=O)Nc4ccc(C)cc4C)c(-c4ccco4)c3c2N)cc1	106	113
Cc1ccc(C)c(N2CCN(c3nc4ccccc4c4nc(CCn5nc(C)cc5C)nn34)CC2)c1	102	106
Cc1c(NC(=O)c2cc3ccccc3o2)cccc1-c1nc2ccccc2o1	106	103
O=C(Nc1ccc2nc(SCC(=O)N3CCCC3)sc2c1)c1ccccc1	105	113
Cc1c(CNC(C)CCc2ccccc2)c(C(=O)O)c(C)n1Cc1ccc(F)cc1Cl (centres undefined)	110	111
Cn1c(SCC(=O)c2ccc(F)cc2)nnc1-c1ccccc1Br	102	101
COc1ccc(C)cc1NC(=O)C1CCN(S(=O)(=O)c2cc(Br)cc3c2N(C(C)=O)CC3)CC1	104	110
Cc1ccc(NC(=O)c2c(N3CCCC3=O)c3cc(C)ccc3n2C)c(C)c1	114	103
CCOc1ccc(CC(=O)Nc2ccc3nc(N4CCCCC4)cc(C)c3c2)cc1OCC	103	105
CCCC1=Nc2cc(C(=O)NCCc3ccc(OCC)cc3)ccc2Sc2ccccc21	109	110
CC1=C(C(=O)Nc2ccccc2)C(c2ccncc2)n2nc(SCc3ccccc3F)nc2N1 (centres undefined)	106	104
Cc1ccc(N2CC(NC(=O)c3cc4ccccc4o3)CC2=O)cc1C (centres undefined)	107	108

Compound profiles, from the list above. Order of screens: Polio RdRp inh	Polio RdRp inh intensity
Record of `CCC(=O)N1CCc2cc(Br)cc(S(=O)(=O)CCC(=O)NCc3ccccc3OC)c21` = 101	103
Record of `Cc1cccc(N2CCN(S(=O)(=O)c3ccc4c(c3)CCCN4C(=O)C3CCC3)CC2C)c1` (centres undefined) = 110	108
Record of `COc1ccc(NC(=O)C2CCN(S(=O)(=O)c3c(C)noc3/C=C/c3cccs3)CC2)cc1` = 108	112
Record of `CC1=C(C(N)=O)C(c2ccccc2Br)n2ncnc2N1` (centres undefined) = 109	107
Record of `CCc1ccc(CNC(=O)C2COc3ccc(OC)cc3C2)cc1` (centres undefined) = 104	107

Sorted by molecular weight (high to low): part of the list above.
SMILES	Polio RdRp inh	Polio RdRp inh intensity
CC1=C(C(=O)Nc2ccccc2)C(c2ccncc2)n2nc(SCc3ccccc3F)nc2N1 (centres undefined)	106	104
CCOC(=O)Cn1c(C2CC(=O)N(c3ccc(C)cc3)C2)nc2ccccc21 (centres undefined)	110	116
CN(c1ncnc2onc(-c3cccc(Cl)c3)c12)C1CCCCC1	107	108

Remaining list, next part.
SMILES	Polio RdRp inh	Polio RdRp inh intensity
O=c1c2cc3c(cc2nc2sc(Nc4ccccc4)nn12)OCO3	105	108
Cc1nn(-c2ccccc2)c2sc(C(=O)Nc3cccc(Br)c3)cc12	108	109
COc1ccc(CCNC(=O)c2c3c(nc4ccccc24)C(=O)N(C2CCCCC2)C3)cc1OC	111	114
Cc1ccccc1OCc1nc2c3cnn(-c4cccc(F)c4)c3ncn2n1	120	121
COc1ccccc1Nc1nn2c(=O)c3ccc(C(=O)NCCC4=CCCCC4)cc3nc2s1	105	102
COc1ccc(NC(=O)CCc2c(C)nc3c(c2C)c(=O)n(C)c(=O)n3C)cc1OC	108	110
CC(=O)c1cccc(NS(=O)(=O)c2cc3c(cc2C)N(C(C)=O)CCO3)c1	103	109
COc1ccc(NC(=O)CSc2nnc(-c3nonc3NC(C)=O)n2-c2ccccc2)cc1	109	112
O=C(CCc1ccccc1)NCc1ccc2c(c1)CCN2C(=O)c1ccc(Cl)cc1	111	117
CC1CCN(S(=O)(=O)c2ccc3c(c2)N(CC(=O)NCc2ccccc2Cl)C(=O)CO3)CC1	105	99
Cc1ccc(NC(=O)c2cccc(NC(=O)N3CCSc4ncccc43)c2)cc1F	114	111
Cn1c(=O)c2c(nc(SCC(=O)Nc3ccccc3)n2Cc2ccccc2F)n(C)c1=O	109	108
O=C(Nc1cc(-c2nc3ccccc3o2)ccc1Cl)c1ccc(Br)o1	75	180
O=C(NCCc1ccccc1)C1(c2cccs2)CCOCC1	105	109
CCc1cccc(N2C(=O)N(Cc3c(F)cccc3Cl)c3ccccc3S2(=O)=O)c1	111	115
Cc1ccc(C(=O)OC2=C(C(=O)c3ccccc3)N(C)S(=O)(=O)c3ccccc32)cc1	108	114
O=C(O)Cc1ccc(NC2(c3ccccc3)C(=O)c3ccccc3C2=O)cc1	109	110
CCOC(=O)c1cnc2c(C)cccc2c1NCCc1ccc(OC)c(OC)c1	104	97
COc1cccc(NC(=O)c2cccn(Cc3ccccc3C)c2=O)c1	105	112
Cc1cc(C)n(-c2nc3cc(Cl)ccc3nc2Nc2ccc(CC(=O)O)cc2)n1	106	109

Overlap with the part before: 2 entries; new compounds follow.
SMILES	Polio RdRp inh	Polio RdRp inh intensity
COc1cccc(NC(=O)c2cccn(Cc3ccccc3C)c2=O)c1	105	112
Cc1cc(C)n(-c2nc3cc(Cl)ccc3nc2Nc2ccc(CC(=O)O)cc2)n1	106	109
Cc1ccc2nc(-c3ccsc3)c(Nc3ccc(Cl)cc3)n2c1	102	105
Cc1cccc2nc(-c3cccc(NS(=O)(=O)c4ccccc4)c3)cn12	103	106
O=C(CCn1c(=O)c2cccn2c2cccnc21)NCc1ccc(Cl)cc1	111	111
Cc1nc2nc(NC(=O)c3ccccc3F)[nH]n2c(=O)c1Cl	111	110
CCOC(=O)c1sc(NC(=O)/C=C/c2ccc(OCC)cc2)c(C(=O)OCC)c1C	107	113
CCOc1ccc(-c2nc(SCC(=O)NCCCOC)c(-c3ccccc3)[nH]2)cc1	110	103

Compound activity deposited in PubChem by ICCB-Longwood Screening Facility, Harvard Medical School.
